MLL AF4-AF9 inh: blocks AF4 peptide binding to human AF9; P42568; 0.47% of 350,000 active; inhibition, % at 10 µM; AlphaScreen, biotin-AF4 peptide binding to FLAG-AF9; AID 651704;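 active = every replicate reaching a set inhibition limit, whatever the replicate mean, cut at about 25% in these data; inconclusive = mean inhibition reaches that limit but some replicates miss it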;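 also: 0% = plate neutral control median and 100% = total signal loss; the record names both 10 and 1 µM as test concentration; the first replicate is given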
Target sequence (P42568 whole entry, looked up): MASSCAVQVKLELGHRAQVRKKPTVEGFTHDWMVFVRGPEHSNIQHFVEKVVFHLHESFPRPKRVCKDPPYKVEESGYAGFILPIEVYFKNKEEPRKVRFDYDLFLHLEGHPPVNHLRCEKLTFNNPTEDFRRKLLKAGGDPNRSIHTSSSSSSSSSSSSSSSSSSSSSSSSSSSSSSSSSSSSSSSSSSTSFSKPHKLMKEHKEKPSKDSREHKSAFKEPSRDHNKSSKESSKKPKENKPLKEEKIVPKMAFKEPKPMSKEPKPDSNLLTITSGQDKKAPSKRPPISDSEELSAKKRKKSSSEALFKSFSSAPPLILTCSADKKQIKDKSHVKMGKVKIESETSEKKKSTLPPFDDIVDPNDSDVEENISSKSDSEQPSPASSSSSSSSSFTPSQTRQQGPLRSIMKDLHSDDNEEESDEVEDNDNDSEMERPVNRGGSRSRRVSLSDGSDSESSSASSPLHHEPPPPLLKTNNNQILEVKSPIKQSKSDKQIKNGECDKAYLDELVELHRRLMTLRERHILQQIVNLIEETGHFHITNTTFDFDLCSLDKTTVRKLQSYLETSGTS
RanGTP-Imp inh: disruptors of Ran-importin-beta complex formation – biochemical, FRET, CFP-Ran, YFP-importin-beta, homogeneous, primary screen | inhibition, % (test concentration not listed) | cell-free CFP-Ran/YFP-importin-beta FRET ratio | AID 2216 | 1.1% of 300,000 active;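 active = most replicates above 15%; inconclusive = exactly half above 15%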;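 also: 0% = DMSO wells and 100% = Ran loaded with GDP instead of GTP; wells of about 40 µL received 100 nL stock; the first replicate is given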
FGF22 binding: shifts melting point of recombinant human FGF22 | recombinant FGF22 thermal shift, SYPRO orange fluorescence; percent of sucrose octasulfate shift, DMSO zero | calls only at 9.99 µM | 1.5% of 340,000 active;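 active = melting point raised past a set limit in the mean and every replicate; inconclusive = no clear call; three in four hits are not shown here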
Target sequence (Q9HCT0 whole entry, looked up): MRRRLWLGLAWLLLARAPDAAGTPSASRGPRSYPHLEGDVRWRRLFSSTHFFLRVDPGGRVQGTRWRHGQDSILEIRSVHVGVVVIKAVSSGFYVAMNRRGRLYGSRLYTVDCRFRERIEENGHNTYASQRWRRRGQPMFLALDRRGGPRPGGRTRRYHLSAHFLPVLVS
HNF4A DNA FP: change in binding of human HNF4 alpha to DNA; 0.3% of 360,000 active; activity change, % at 10 µM; AID 1224865; P41235; HNF4a-FITC DNA binding, fluorescence polarization, 1 h; in the data active = activity change above about 30%, passing the limit was not always enough;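 also: controls were the assay level and a saturating level of protein; the project sought stronger binding though the title names inhibitors; some compounds called inactive have numbers as strong as hits; positive values seem to mean higher polarization but the record does not say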
UCH37 inh: human UCH37 deubiquitinating enzyme inhibition. inhibition, % (no concentration beside the values). 0.33% of 330,000 active. Q9Y5K5. purified proteasome/UCH37, Ub-AMC cleavage fluorescence;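 active = mean of two replicates above 20%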;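 also: 0% = compound-free wells with enzyme and 100% = wells lacking proteasome; stock transfer was 100 nL into about 20 µL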
Target sequence (Q9Y5K5 whole entry, looked up): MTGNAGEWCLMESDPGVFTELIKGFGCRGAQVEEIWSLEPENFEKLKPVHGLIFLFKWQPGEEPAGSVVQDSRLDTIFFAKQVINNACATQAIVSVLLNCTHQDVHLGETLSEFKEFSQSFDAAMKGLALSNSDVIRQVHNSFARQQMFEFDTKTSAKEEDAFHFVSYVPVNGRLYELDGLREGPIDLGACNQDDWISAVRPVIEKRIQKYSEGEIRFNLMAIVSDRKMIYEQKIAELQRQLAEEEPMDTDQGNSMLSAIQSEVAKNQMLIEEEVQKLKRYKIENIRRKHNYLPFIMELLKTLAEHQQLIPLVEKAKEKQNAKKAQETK
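Test system – human UCH37 enzyme supplied as purified proteasome complex · Incubation – 30 min preincubation with enzyme, 25 min cleavage at room temperature · Detection – AMC fluorescence from Ub-AMC cleavage, excitation 355 nm, emission 460 nm · Benchmarks – no-proteasome wells (full inhibition) and compound-free wells (no inhibition)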
Vif A3G: HIV-1 Vif–A3G interaction blockers – biochemical, TR-FRET, GST-Vif 1-94, biotin-A3G peptide, dose response retest, primary screen (AID 1117319); 0.57% of 260,000 active; TR-FRET GST-Vif / biotin-A3G peptide binding; higher % means a stronger effect; test concentration not given here; strong numbers were not always called active; inhibition, %; hits with a dose series show IC50 in µM;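 active = above the screen mean plus three standard deviations and confirmed in dose response; inconclusive = results disagree or hit not tested in dose response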;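 also: Vif residues 1-94 fused to GST binding biotinylated APOBEC3G peptide 110-148; 0% = full assay without inhibitor and 100% = GST in place of GST-Vif; retest series ran down from 100 µM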
E coli growth: blocks Escherichia coli growth; OD600, 23 h; active compounds read low; OD600 absorbance (no concentration beside the values); 0.21% of 330,000 active;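 active = OD600 absorbance below the run mean of sample wells minus 3.6 SD, in any replicate, cut at about 0.56 in these data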;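 also: stock transfer was 300 nL into about 60 µL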
Starred values were filed as active, the others as inactive; i = inactive; u = inconclusive; x = no result given. Some of the compounds tested; rates above refer to the full screens.

SMILES | MLL AF4-AF9 inh | RanGTP-Imp inh | FGF22 binding | HNF4A DNA FP | UCH37 inh | Vif A3G | E coli growth
N#CC1=C(N)n2c(s/c(=C\c3cccs3)c2=O)=C(C#N)C1c1cccs1 (centres undefined) | x | -17 | x | 65 | x | u | x
c1ccc(COn2nnc3ccccc32)c(COn2nnc3ccccc32)c1 | 6.2 | 0.9 | i | -1.3 | 3.5 | 11% | 0.67
Cc1ccc(-n2ncc3c(=O)n(CC(=O)NC4CCCCC4)cnc32)cc1 | x | 5.5 | x | 1.4 | 0.2 | -4% | 0.72
COc1ccc(C(=O)N2CC(=O)Nc3ccc(F)cc3C2c2ccccc2)cc1 (centres undefined) | 3.5 | 0.6 | i | -0.1 | 4.7 | 3% | 0.67
O=C(O)Cc1ccc(NS(=O)(=O)c2ccc3c(c2)OCCO3)cc1 | -15 | x | i | -0.4 | x | x | x
COc1ccc(CNc2cccc3[nH]c(C(F)(F)F)nc23)cc1 | 1.8 | 5.0 | i | 3.8 | -6.4 | 9% | 0.71
Cc1cc(Nc2cccc(Cl)c2)nc(N2CCOCC2)n1 | x | -1.4 | x | -5.4 | 3.3 | 0% | 0.69
Cc1ccc(NC(=O)C2(C)CCCN(C(C)C)C2)cc1C (centres undefined) | -7.1 | x | i | 2.2 | x | x | x
Cc1noc(C)c1COC(=O)c1cc2c(C)nn(-c3ccc(F)cc3)c2s1 | x | -1.6 | x | -1.3 | -0.5 | -5% | 0.67
CCOC(=O)C1=C(c2ccccc2)NC(SCC(=O)Nc2ccccc2C)=C(C#N)C1c1ccco1 (centres undefined) | x | 4.7 | x | 0.8 | 0.1 | 3% | 0.67
C=CCOc1ccc(/C=C/C(=O)OCC(=O)NCCc2ccccc2)cc1 | -9.1 | 1.5 | i | 3.6 | -6.2 | 8% | 0.66
CCOc1ccc(CCNC(=O)CS(=O)Cc2nc(-c3ccc(C)cc3)oc2C)cc1 (centres undefined) | -3.4 | 0.6 | i | 3.5 | 2.6 | 5% | 0.68
Cc1ccc(CCNC(=O)C2CCN(C(=O)N(C)C)CC2)cc1 | x | -0.2 | x | -0.5 | 5.8 | -5% | 0.69
CC1CC(C)(C)n2c(O)c(N=NC(N)=S)c3cccc1c32 (centres undefined) | 3.4 | -1.2 | i | 5.5 | 1.4 | x | 0.66
COc1ccccc1OCCC(=O)NCc1ccc2c(c1)OCO2 | 1.0 | 3.8 | i | -8.3 | -3.6 | 0% | 0.68
CC1CCCC(=NNC(=O)C2COc3ccccc3O2)C1 (centres undefined) | 6.9 | x | i | 3.6 | 3.7 | x | 0.71
COc1ccccc1NC(=O)CN(Cc1ccco1)C(=O)c1ccc(Cl)nc1 | 0.2 | 4.2 | i | 1.8 | -0.1 | x | 0.67
COc1ccc(Cl)cc1-n1c(=S)sc2c(=O)[nH]c(SCC(=O)NCCC(C)C)nc21 | 2.4 | -4.6 | i | -1.2 | 8.8 | x | 0.67
Cc1ccc(/C=N/NC(=O)CN2CCN(Cc3ccccc3Cl)CC2)o1 | 2.3 | 1.1 | i | -0.2 | x | 7% | x
Cc1cc(C)n(/C(=C/N(C)C)C(=O)c2ccccc2)n1 | -0.7 | 0.1 | x | -2.3 | 0.6 | 0% | 0.71
O=C1CC(c2ccc(F)cc2)CC(O)=C1C1NCCc2ccccc21 (centres undefined) | x | 4.2 | x | -0.8 | 3.6 | -2% | 0.69
O=C(NCC(c1cccs1)N1CCOCC1)c1cn(-c2ccccc2)nc1-c1ccc(F)cc1 (centres undefined) | -2.7 | 3.0 | i | 0.8 | 4.7 | -1% | 0.71
Cc1cc(C(C)(C)C)oc1C(=O)N(CC(=O)NC1CCCC1)Cc1ccccc1Cl | -1.9 | -4.3 | i | -3.9 | 1.1 | 0% | 0.69
CN(C)c1ccc(/C=C/C=C2/SC(=S)N(c3ccccc3)C2=O)cc1 | x | -4.3 | x | 57* | 3.2 | 19% | 0.85
CCSc1nnc(-c2ccccc2N)c(=O)[nH]1 | -5.7 | -2.2 | i | -3.0 | -1.1 | -4% | 0.66
Next part.
SMILES | MLL AF4-AF9 inh | RanGTP-Imp inh | FGF22 binding | HNF4A DNA FP | UCH37 inh | Vif A3G | E coli growth
Cc1c(CCC(=O)O)c(=O)oc2cc(OCc3ccccc3Br)ccc12 | -0.1 | -1.0 | i | -0.9 | -232 | -2% | 0.68
CCN1CCN(S(=O)(=O)c2ccc(F)c(C(=O)Nc3c(F)cc(F)cc3Br)c2)CC1 | -2.2 | 2.1 | i | 2.0 | 1.3 | -10% | 0.67
COC(=O)c1cc(=O)n(CCc2ccc(OC)c(OC)c2)c(=Nc2ccc(F)c(Cl)c2)s1 | 7.9 | -4.6 | i | -3.4 | 10 | 3% | 0.78
O=C(NNC(=S)NCC1CCCO1)c1cccc(S(=O)(=O)N2CCOCC2)c1 (centres undefined) | -1.5 | 0.3 | i | -5.2 | 7.4 | u | 0.74
Cc1cc(C)nc(SCc2ccc(F)cc2)n1 | -1.2 | -1.0 | i | 1.0 | 1.4 | 3% | 0.67
O=C(NS(=O)(=O)c1ccccc1)c1cccc(Br)c1 | -3.6 | x | i | -1.4 | 1.3 | 3% | 0.69
CCOc1ccc(-c2cc(C)n3nc(C(N)=O)cc3n2)cc1 | x | 2.7 | x | 1.4 | -409 | 2% | 0.77
COC(=O)N/N=C/c1ccccc1Cl | 0.4 | -0.8 | i | -6.2 | x | x | x
COc1ccc(NC(=O)CN(C)C(=O)CCCNC(=O)c2ccc(Cl)cc2)cc1 | -2.3 | -1.3 | x | 4.4 | -1.1 | 4% | 0.71
CCCc1nc(SCC(=O)O)c2sc(=S)n(-c3ccccc3)c2n1 | -0.1 | -0.4 | i | -0.5 | 17 | -1% | 0.69
Cc1cccc(Nc2nnc(SCC(=O)c3ccc(O)cc3O)s2)c1 | 0.4 | 2.5 | i | -2.0 | 5.2 | -9% | 0.67
COc1cc(-n2c(C)nc3cc(C(=O)NCc4ccco4)ccc32)cc(OC)c1OC | x | 2.4 | x | -0.2 | 1.2 | u | 0.78
Cc1ccc(NC(=O)c2ccc(-n3cccn3)c([N+](=O)[O-])c2)cc1C | x | 4.5 | x | 1.6 | -0.3 | 0% | 0.66
CCC(C)NC(=O)C(NS(=O)(=O)c1cccc2nsnc12)c1ccccc1 (centres undefined) | x | 5.7 | x | -1.0 | 2.1 | 1% | 0.7
COCCNC(=O)C1CC2Cn3c(nc4cc(C)c(C)cc43)C2N1C (centres undefined) | 0.1 | 4.1 | i | -2.3 | 3.5 | -3% | 0.71
CCc1nc(N[C@H](C(=O)O)C(C)CC)c2oc3ccccc3c2n1 (some centres undefined) | x | -4.4 | x | -1.0 | -0.6 | -7% | x
CCN(CC)C(=S)SCC(=O)NC12CC3CC(CC(C3)C1)C2 | -3.9 | -2.8 | i | 2.5 | 2.1 | 2% | 0.72
Cc1cc(C(=O)COC(=O)Cc2n[nH]c(=O)c3ccccc23)c(C)n1CC(F)(F)F | -6.8 | x | i | -3.9 | 0.1 | -3% | 0.71
CC1(C(=O)NS(=O)(=O)c2ccc(C#N)cc2)CCN1C(=O)c1ccc(C2CCCCC2)cc1 (centres undefined) | -2.2 | x | i | -0.1 | x | x | x
CC(C)CC(=O)NS(=O)(=O)c1ccc(NS(C)(=O)=O)cc1 | -1.4 | 1.9 | x | -2.9 | 4.7 | u | 0.66
N#C/C(=C/c1ccc(Sc2nc3ccccc3[nH]2)o1)c1cccc(Br)c1 | x | 2.4 | x | 6.2 | -14 | 1% | 0.78
CC(C)Sc1nc2[nH]ncc2c(=O)[nH]1 | -2.1 | -1.5 | i | -3.5 | 5.1 | 5% | 0.7
CCN(CC)CCOc1ccc2nc(N(C)C)sc2c1 | x | -7.1 | x | -1.6 | 2.2 | 6% | 0.7
CCCCN(C1CCS(=O)(=O)C1)S(=O)(=O)c1cccs1 (centres undefined) | -0.1 | 5.1 | i | 4.0 | 3.0 | 0% | 0.71
COc1ccc(CNC(=O)C(Cc2ccccc2)n2cccc2)cc1 (centres undefined) | -12 | -4.4 | i | -1.2 | 6.5 | -8% | 0.72

A few values from the list:
Entry of `Cc1cccc(Nc2nnc(SCC(=O)c3ccc(O)cc3O)s2)c1` in Vif A3G: -9%
Entry of `Cc1cc(C)nc(SCc2ccc(F)cc2)n1` in Vif A3G: 3%
Entry of `O=C(NNC(=S)NCC1CCCO1)c1cccc(S(=O)(=O)N2CCOCC2)c1` (centres undefined) in UCH37 inh: 7.4
Entry of `COCCNC(=O)C1CC2Cn3c(nc4cc(C)c(C)cc43)C2N1C` (centres undefined) in HNF4A DNA FP: -2.3
Entry of `CC1(C(=O)NS(=O)(=O)c2ccc(C#N)cc2)CCN1C(=O)c1ccc(C2CCCCC2)cc1` (centres undefined) in HNF4A DNA FP: -0.1
Entry of `COc1ccc(CNc2cccc3[nH]c(C(F)(F)F)nc23)cc1` in HNF4A DNA FP: 3.8
Entry of `c1ccc(COn2nnc3ccccc32)c(COn2nnc3ccccc32)c1` in RanGTP-Imp inh: 0.9

Back to the main list, starting 2 compounds before the break.
SMILES | MLL AF4-AF9 inh | RanGTP-Imp inh | FGF22 binding | HNF4A DNA FP | UCH37 inh | Vif A3G | E coli growth
CCCCN(C1CCS(=O)(=O)C1)S(=O)(=O)c1cccs1 (centres undefined) | -0.1 | 5.1 | i | 4.0 | 3.0 | 0% | 0.71
COc1ccc(CNC(=O)C(Cc2ccccc2)n2cccc2)cc1 (centres undefined) | -12 | -4.4 | i | -1.2 | 6.5 | -8% | 0.72
Cc1cccc(C(=O)C2CCOC(C)(C)C2)c1 (centres undefined) | 1.4 | -2.2 | i | -2.0 | 5.2 | 0% | 0.62
CCCn1c(SCC(=O)c2cc(C)n(-c3ccc4c(c3)OCO4)c2C)n[nH]c1=O | 8.4 | -0.2 | i | 1.1 | -0.8 | x | 0.64
CC(C)N1CC(C(=O)Nc2ccc(Br)c(Cl)c2)CC1=O (centres undefined) | x | 4.9 | x | 0.7 | 6.2 | -1% | 0.73
Cc1cc(C)n2nc(CNS(=O)(=O)c3ccc(C)c(C)c3)nc2n1 | -9.0 | -2.1 | i | 3.9 | 2.9 | x | 0.7
O=C(N/N=C/c1ccccc1OC(F)F)C1=COCCO1 | -0.7 | -5.4 | i | 0.8 | x | -3% | x
Cc1cc(NC(=O)CCC(=O)N(c2ccccc2)C(C(=O)NC2CCCCC2)c2cccs2)no1 (centres undefined) | x | -0.4 | x | -2.5 | -2.4 | 19% | 0.7
O=C1CCCc2c1oc1c2CCCC1 | -4.3 | x | i | -0.8 | 2.0 | 10% | 0.67
NC(=O)c1ccc(NC(=O)c2cccc3c2OCCCO3)cc1 | -1.8 | -3.1 | i | -1.2 | 5.5 | 1% | 0.67
CC(C)(C)NC(=S)NNC(=O)c1cccc(Br)c1 | 6.7 | -0.5 | i | -3.5 | 4.0 | u | 0.66
COc1ccc(S(=O)(=O)N2CCN(C(=O)c3cccs3)CC2)cc1 | x | -0.1 | x | 1.7 | 2.6 | 3% | 0.73
O=C(Cn1cnc2ccccc2c1=O)NC1CCCc2ccccc21 (centres undefined) | x | 1.8 | x | 2.8 | 5.2 | 3% | 0.7
O=C(NCC(c1cccnc1)N1CCN(c2ccc(F)cc2)CC1)c1ccco1 (centres undefined) | -2.3 | 3.7 | i | 1.9 | 1.6 | 33% | 0.7
CCN(Cc1ccccc1)C(=O)c1cccc(S(=O)(=O)N2CCN(c3ccccc3)CC2)c1 | 4.1 | -1.9 | i | 3.2 | 0.7 | 2% | 0.67
O=C(O)COc1ccc(-c2nc(-c3ccccc3)c(-c3ccccc3)[nH]2)cc1 | -0.7 | -1.9 | i | -1.7 | -65 | 9% | 0.68
O=C(CSc1ccc(F)cc1)NNC(=O)c1ccccc1Br | -11 | u | i | 1.5 | 3.1 | -4% | 0.72
O=C(Cc1ccc(Cl)cc1)Nc1ccc(C(=O)N2CCOCC2)cc1 | 0.3 | -1.0 | x | -1.0 | 0.2 | -3% | 0.6

Assay outcomes: PubChem, several laboratories
